LANA-H2A inh – blocks KSHV LANA binding to histone H2A/H2B. Q9QR71. cell-free LANA-H2A/H2B peptide, fluorescence polarization. inhibition, % (concentration not given with the values). 320,000 tested, 0.6% active; in the data active = inhibition mostly above about 10%, no sharp cut-off; inactive = mostly below about 6.7%;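 also: stock transfer was 7.5 nL into about 10 µL; 0% = median of vehicle wells and 100% = median of positive control wells; one replicate is shown; the record names a cut of 25% in any replicate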
ALR inh – inhibitors of human sulfhydryl oxidase ALR; 290,000 tested, 3.8% active; inhibition, % (no concentration beside the values); AID 485317; purified ALR, DTT oxidation, H2O2 HRP-luminol luminescence;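 active = mean and each replicate at 75% or more; inconclusive = only one of the two met; inactive = neither met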;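 also: stock transfer was 7.5 nL into about 7.5 µL; 0% = neutral wells and 100% = wells with inactivated enzyme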
Target sequence (P55789 whole entry, looked up): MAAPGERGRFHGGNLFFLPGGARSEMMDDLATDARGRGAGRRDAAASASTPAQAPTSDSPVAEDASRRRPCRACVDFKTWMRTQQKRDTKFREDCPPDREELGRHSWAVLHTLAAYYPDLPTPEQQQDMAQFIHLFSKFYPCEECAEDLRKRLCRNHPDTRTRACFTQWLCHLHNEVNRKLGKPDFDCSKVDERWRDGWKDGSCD
A1 inh – inhibitors of the anti-apoptotic protein A1, read as caspase activation. MEF A1-2A-BIM cells, Caspase-Glo 3/7 luminescence, 3 h; percent of clofoctol response, vehicle zero. caspase activation, % (no concentration beside the values). 330,000 tested, 0.066% active;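 active = over half of replicate activation scores above 10%, or exactly half above 10 with the replicate mean above 10; inconclusive = replicate mean below 10 yet half the replicates above 10; inactive = over half of replicates below 10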;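 also: wells of about 30 µL received 50 nL stock; many hits fall short of the cut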
B2AR ag – human beta-2 adrenergic receptor agonism by FAP. P07550. Am2.2-beta2AR cells, FAP receptor internalization, flow cytometry; reference of the scale not given here. response, % (no concentration beside the values). 340,000 tested, 0.43% active. AID 504454;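 active = response above a set limit, near 3 SD of response in nonfluorescent compounds, cut at about 42% in these data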;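 also: stock transfer was 100 nL into about 11 µL; a reference agonist was the positive control; negative values mostly stem from fluorescent compounds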
Target sequence (P07550 whole entry, looked up): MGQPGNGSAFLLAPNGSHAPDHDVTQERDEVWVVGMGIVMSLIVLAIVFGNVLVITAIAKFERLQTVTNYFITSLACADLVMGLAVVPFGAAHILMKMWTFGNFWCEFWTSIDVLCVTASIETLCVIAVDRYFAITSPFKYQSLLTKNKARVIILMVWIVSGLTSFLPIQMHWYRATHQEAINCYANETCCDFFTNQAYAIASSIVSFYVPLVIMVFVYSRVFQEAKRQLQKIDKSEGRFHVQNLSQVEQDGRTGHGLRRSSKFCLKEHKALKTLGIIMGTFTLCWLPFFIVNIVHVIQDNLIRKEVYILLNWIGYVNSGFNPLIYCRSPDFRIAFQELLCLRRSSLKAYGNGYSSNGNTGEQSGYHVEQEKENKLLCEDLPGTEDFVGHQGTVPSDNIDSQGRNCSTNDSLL
Ecoli rRNA inh – selective bacterial rRNA inhibition in E. coli. GFP signal change (wild-type ribosome), % (no concentration beside the values). E. coli WT GFP vs humanized-ribosome RFP mutants, fluorescence, 24 h; active compounds read low; DMSO median 0, no signal -100. 350,000 tested, 1.6% active;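 active = significant combined selectivity score with lowered wild-type GFP, culture density cut under 30%, mutant RFP and density less affected; inactive = any of these conditions unmet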; also: one replicate is shown; some compounds called inactive have numbers as strong as hits
T cruzi repl – blocks replication of Trypanosoma cruzi | T. cruzi beta-gal in NIH3T3, luminescence, 90 h | 300,000 tested, 1.4% active | inhibition, % (concentration not given with the values);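 active = mean inhibition across valid replicates above about 55%, limit read from the data; inconclusive = mean below that limit but half or more replicates reach it; inactive = mean below it, under half of replicates reach it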;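 also: signal also drops with host cell toxicity which is not excluded here; 0% = plate median of DMSO wells and 100% = zero luminescence signal; higher percent means less beta-gal luminescence so fewer parasites; stock transfer was 50 nL into about 50 µL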
Beta apoptosis – beta cell apoptosis inhibition | INS-1E cytokine-induced death, ATP luminescence, 48 h; percent of positive-control rescue, neutral wells zero | protection from apoptosis, % (concentration not given with the values) | 300,000 tested, 0.8% active | AID 435005;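 active = all replicates at 75% or more, or half of them and the mean; inconclusive = half reach 75% but not the mean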;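 also: 0% = cytokine-treated negative control wells and 100% = positive control rescue; higher means more ATP so stronger rescue from cytokine killing; wells of about 40 µL received 100 nL stock; the first replicate is given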
Calb FLC – C. albicans growth modulation with fluconazole | C. albicans CaCi-2 (fluconazole-resistant clinical isolate) + fluconazole, Alamar Blue growth, 48 h | growth inhibition, % (test concentration not listed) | 300,000 tested, 0.57% active | AID 1979;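 active = most replicates above 75%; inconclusive = exactly half above 75%; inactive = most below 75%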;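 also: all wells also contain fluconazole at 8 µg/ml as a sub-toxic cotreatment; 0% = median of DMSO wells and 100% = median of geldanamycin control wells; wells of about 8 µL received 7.5 nL stock; the first replicate is given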
Ecoli rRNA inh OD600 – recorded beside Ecoli rRNA inh, whose call it bears; OD600 change, %; measured here: OD600 growth;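 optical density of the mix in the first replicate; 0 = DMSO median and -100 = no signal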
Ecoli rRNA inh RFP – further read-out of Ecoli rRNA inh, marked with its call; RFP signal change, %; measured here: RFP humanized mutant strains;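 first replicate; 0 = DMSO median and -100 = no signal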
* marks the source's active call; other numbers are inactive results; ? = inconclusive; . = no result given. Only part of the results is shown (hit frequency here may not be typical).

SMILES	LANA-H2A inh	ALR inh	A1 inh	B2AR ag	Ecoli rRNA inh	Ecoli rRNA inh OD600	Ecoli rRNA inh RFP	T cruzi repl	Beta apoptosis	Calb FLC
CCCN(C(=O)Cc1coc2cc(OC)ccc12)C1CCS(=O)(=O)C1 (stereo not drawn)	-6.5	-72	1.1	-5	0	-2	-3.5	.	-9	.
COc1ccc(Cl)c(NCCC(=O)O)c1	0.0	16	-0.1	4	.	.	.	-10	-6	?
CC(C)(C)c1ccc(C(=O)NC(CC(=O)O)c2ccc(OC3CCCC3)cc2)cc1 (stereo not drawn)	1.7	13	0.5	-5	0	-10	-0.5	-13	3	-5
COc1ccccc1NC(=O)C(NC(=O)OC(C)(C)C)C(C)OCc1ccccc1 (stereo not drawn)	0.0	-6	0.2	1	-15	-15	-3.5	26	3	10
O=C(CNCCO)N1CCc2ccccc21	.	.	-0.1	-3	.	.	.	-22	0	10
CCc1ccc(/C=C2/Sc3ccccc3N(CC(=O)NCCCN3CCOCC3)C2=O)cc1	0.0	-6	-1.1	28	-41	-60	-12	5	.	20
FC(F)(F)c1cnc(N2CCC(=NOCc3ccc(Cl)cc3)CC2)c(Cl)c1	5.2	6	0.4	6	.	.	.	30	-2	-10
COC(=O)c1cc(NC(=O)c2cc(C(C)(C)C)nn2Cc2cccc(C)c2)ccc1N1CCOCC1	-0.3	4	0.8	1	4	0	-0.2	37	22	-6
O=C(COC(=O)c1ccccc1O)NC12CC3CC(CC(C3)C1)C2	-1.3	-2	0.8	.	-9	-49	2.3	.	1	.
CCOc1ccccc1C(=O)Nn1c(C2CCC2)nc2ccccc2c1=O	1.4	-1	1.4	-8	.	.	.	31	2	14
CC1CCC(C(C)C)C(OC(=O)C[n+]2cc(-c3ccc(Cl)cc3)n3c2CCCCC3)C1 (stereo not drawn)	4.5	-3	0.0	-1	-59	-78	-19	56*	106*	95*
CC(Oc1cc(F)ccc1[N+](=O)[O-])C(=O)Nc1ccc(S(=O)(=O)N2CCCC2)cc1 (stereo not drawn)	-0.4	0	0.2	9	-21	-11	16	17	9	8
O=C(NCCCCc1ccccc1)c1ccccc1	6.4	0	0.1	-4	-4	4	-3.7	4	2	-7
Cc1ccc(/C=C/C(=O)Nc2nccs2)o1	-4.4	-6	-10	-3	15	7	9.0	-4	-7	-2
C[C@@H]1C=C(C(=O)N2CCN(Cc3ccc4c(c3)OCO4)CC2)O[C@H](OCCCCO)C1	4.0	-7	0.5	1	7	8	4.0	1	-4	-10
CN(c1ccccc1)c1nc(N)c([N+](=O)[O-])c(Nc2ccccc2)n1	-7.4	1	0.1	8	11	14	9.8	24	0	-4
CC12CCC(C1)C(C)(C)C2OC(=O)c1ccccc1C(=O)O (stereo not drawn)	-1.3	.	0.4	-1	-5	5	0.7	-5	0	0
COc1ccc(CCNC(=O)Cn2ccc3c(OC)cccc3c2=O)cc1OC	-4.7	1	0.1	-4	1	-2	-6.1	1	-5	-2
O=C(N[C@@H](c1ccccc1)[C@@H]1C[C@H]1C(=O)NCc1ccccn1)OCc1ccccc1	2.3	-15	-0.6	15	-3	-5	-3.4	7	-2	17
CCCn1c(C2CCCN2c2nc(-c3ccc(OC)cc3)cs2)nc2ccccc21 (stereo not drawn)	-0.4	-1	1.5	-1	.	.	.	-8	-9	-4
COc1cccc(NC(=O)N2CCCC2C(=O)NCc2ccccc2F)c1 (stereo not drawn)	-5.0	-10	0.4	-3	18	15	0.7	-6	-5	-13
COc1ccc(N2C(=O)C(Cl)=C(Nc3ccc(OC)cc3OC)C2=O)cc1	3.7	-13	0.4	4	10	16	1.9	-17	-7	10
Cc1cccc(NC(=O)COc2ccc(Br)cc2)n1	-0.6	-4	-4.3	14	.	.	.	1	-1	-20
COCCNC(=O)c1onc(CCl)c1C(=O)OC	3.5	48	2.1	-2	8	8	11	3	-2	-2
COc1cc(NC(=O)CN(C)S(=O)(=O)c2ccc3c(c2)CC(C)N3C(C)=O)cc(OC)c1OC (stereo not drawn)	0.6	-2	-1.0	-5	9	1	6.7	-14	0	-3

The last two records of the part before come first, to join the parts.
SMILES	LANA-H2A inh	ALR inh	A1 inh	B2AR ag	Ecoli rRNA inh	Ecoli rRNA inh OD600	Ecoli rRNA inh RFP	T cruzi repl	Beta apoptosis	Calb FLC
COCCNC(=O)c1onc(CCl)c1C(=O)OC	3.5	48	2.1	-2	8	8	11	3	-2	-2
COc1cc(NC(=O)CN(C)S(=O)(=O)c2ccc3c(c2)CC(C)N3C(C)=O)cc(OC)c1OC (stereo not drawn)	0.6	-2	-1.0	-5	9	1	6.7	-14	0	-3
Cc1cc(C)c(C)c(OCCOCCN2CCOCC2)c1	2.0	-4	-0.3	3	.	.	.	14	-1	-4
CC1CC(C)CN(CC(=O)N2c3ccccc3CCc3ccccc32)C1 (stereo not drawn)	4.7	7	-0.2	-1	.	.	.	32	-1	-3
Cc1ccc(Cc2cc(-c3ccc(C)cc3)n[nH]c2=O)cc1	3.0	-4	-0.3	2	5	-7	-0.1	4	-19	6
C/C(CCc1ccccc1)=N\NC(=O)C(=O)Nc1cccc(Cl)c1	-6.6	-8	-3.3	-11	2	-7	3.3	0	-1	3
Cc1ccc2c(c1)C(C)(C)[C@]1(C)NC(=O)CCN21	6.2	36	-0.4	1	.	.	.	-18	-2	-2
COc1ccc(C(=O)NCCNc2nc3c(C)cccc3cc2C#N)cc1	-3.7	-3	0.0	4	2	-6	-0.9	12	-1	3
COc1ccc2nc(C)cc(Nc3ccccc3O)c2c1	5.9	74	0.1	4	-27	-29	-2.5	14	22	-20
O=C1c2cccnc2C(O)N1C1CCCCC1 (stereo not drawn)	3.1	-3	0.1	-5	20	13	0.6	4	-4	-10
CN(C)C(=O)CN1C(=O)c2cccc3cccc1c23	3.9	-12	0.4	-2	4	3	0.2	2	-1	0
Cc1ccc(-n2nnnc2-c2ccccc2Br)cc1	3.1	-6	0.5	-3	-28*	-6.4*	-5.1*	-1	1	32
O=C(c1ccccc1)c1ccc2nc[nH]c2c1	0.9	1	-0.5	-10	-1	-1	-7.9	16	-8	-4
CCCCCCCCNC(=O)c1cccnc1SCC(=O)Nc1ccccc1OC	3.4	-5	1.0	-6	-1	-3	-11	9	-1	-21
COCCNC(=S)N/N=C(\C)c1ccc(Cl)c(Cl)c1	-5.9	.	-0.8	0	-20	-8	-2.7	22	-1	30
COc1ccc(OC)c(N(CC(=O)Nc2ccc3c(c2)OCCO3)S(C)(=O)=O)c1	4.7	-50	0.4	0	.	.	.	-16	1	-2
CC12CN3CC(C)(CN(C1)C3c1ccccc1)C2O (stereo not drawn)	.	1	0.4	11	12	9	6.8	-10	-7	-23
CN(CC(=O)Nc1ccc(S(N)(=O)=O)cc1)c1ccccc1	-2.3	26	0.7	3	.	.	.	-1	-4	-3
CCOC(=O)CN1N=C(c2ccc(Cl)cc2)CCC1=O	5.8	-2	0.0	-3	9	5	2.6	-1	1	3
O=C(CN1CCCC1)N1c2ccccc2C=Cc2ccccc21	1.9	-16	0.0	-2	-1	0	0.6	-10	-6	1
CCOC(=O)c1cc(=O)c2ccc(OCC(=O)Nc3ccc(F)cc3)cc2o1	-1.2	-1	0.9	0	7	7	1.2	-1	-4	7
O=C(NC(Cc1ccccc1)c1nc2ccccc2[nH]1)C1CC(=O)N(c2ccc3c(c2)OCCO3)C1 (stereo not drawn)	2.1	.	0.0	-6	.	.	.	5	-2	-1
CN(NC(=O)c1ccccc1Cl)c1ncc(C(F)(F)F)cc1Cl	1.1	.	0.9	1	11	9	3.7	-16	.	0
COc1ccc(NC(=O)/C(C#N)=C/c2ncc([N+](=O)[O-])n2C)c(OC)c1	-4.6	-10	0.8	7	7	8	9.3	-11	4	-3
COc1ccc(-n2cnc3cc(C(=O)N4CCOCC4)ccc32)cc1	-7.6	-5	-0.6	0	-2	8	2.9	-17	-4	-1
O=C(O)C1=C[C@@H](c2ccc(Br)cc2)C[C@@H](OCCCCO)O1	-3.1	?	-1.3	-3	.	.	.	-15	-6	-3
CS(=O)(=O)Nc1ccc(S(=O)(=O)Nc2nccs2)cc1	-1.7	-2	0.2	8	.	.	.	-4	-9	.

Continuation:
SMILES	LANA-H2A inh	ALR inh	A1 inh	B2AR ag	Ecoli rRNA inh	Ecoli rRNA inh OD600	Ecoli rRNA inh RFP	T cruzi repl	Beta apoptosis	Calb FLC
CC(CC(=O)O)n1nnc2ccccc21 (stereo not drawn)	3.4	3	-0.1	-6	12	13	-2.4	0	-1	0
CCN1C(=O)[C@H]2[C@@H](c3ccc(-c4ccc(C(C)=O)cc4)cc3)N[C@@](C)(C(=O)OC)[C@H]2C1=O	-3.7	-42	-0.2	-3	.	.	.	.	-2	.
COc1ccc(C(CCNCc2ccc(N(C)C)cc2)C(C)C)cc1 (stereo not drawn)	-2.7	21	-0.5	27	.	.	.	24	37	-22
O=C1NC(=O)/C(=C/c2ccco2)N1	0.4	5	?	-10	16	8	2.0	.	-6	.
Nc1cc(=O)[nH]c(SCC(=O)N2N=C(c3ccc(Cl)cc3)CC2c2ccco2)n1 (stereo not drawn)	-2.0	5	-1.3	-5	-5	3	-1.6	-4	-1	4
COC(=O)c1nc2nc(C)cc(=O)n2[nH]1	-2.5	-8	-0.8	11	.	.	.	-1	-5	-5
COc1ccc([N+](=O)[O-])c2c(=O)ccoc12	0.1	-1	0.2	0	.	.	.	-13	-1	19
CCCCNC(=O)OCC(CC)NC(=O)OC(C)C (stereo not drawn)	-2.2	-1	0.3	1	.	.	.	-2	1	-2
CC1CN2C(c3ccc([N+](=O)[O-])cc3)=CSC2=N1 (stereo not drawn)	-2.6	31	0.1	17	17	16	4.0	0	0	-20
Cc1cc2ccccc2cc1CN1CCCCC1	2.7	-7	-0.3	1	3	2	1.6	29	0	0
O=[N+]([O-])c1cccc(/C=N/n2cnnc2)c1	6.3	-11	-1.1	-8	13	9	0.5	-3	82*	-4
Cc1ccc(/C=N/NC(=S)NC(C)C)o1	0.6	5	0.8	-2	.	.	.	-8	-6	-3
O=c1[nH]c2ccccc2c(=O)n1Cc1ccco1	-6.5	1	-0.4	-11	.	.	.	-19	3	-7
O=C(COc1ccccc1Cl)NCC(c1cccs1)N1CCOCC1 (stereo not drawn)	-2.8	0	-0.3	3	-9	-6	3.2	7	-2	16
COc1ccc(S(=O)(=O)Nc2ccccc2C(=O)NCc2ccco2)cc1Br	2.1	1	0.7	-1	.	.	.	1	1	-3
S=C(NCc1ccncc1)NC1CCCC1	3.9	-3	-0.4	3	23	13	-0.6	-2	-2	3
Cc1nc2cc(-c3cccc(F)c3)nn2c(C)c1CCC(=O)NC(C)c1ccc2c(c1)OCCO2 (stereo not drawn)	1.1	.	0.3	-8	0	11	2.8	37	6	12
CC(C)CNc1cc(=O)n(C)c(=O)n1C	-3.8	-2	-0.3	-4	.	.	.	-2	-8	6
O=C(Nc1cc(F)ccc1F)c1ccc(-n2cncn2)c([N+](=O)[O-])c1	.	.	-0.1	15	1	10	-3.5	-9	0	29
